Assay outcomes from PubChem BioAssay.
EPAC1 ag val = validation of human EPAC1 agonists. EPAC1 Rap1b BODIPY-GDP exchange, fluorescence. Potency, µM, for inactives: max response, positive = active, usual class: activators. AID 1645883. hit rate 1% among 16,000. O95398; active means well fitted activation curve with a large enough effect; inconclusive means small, poorly fitted or top-dose-only effect; inactive means no such curve, though single readings can be large or run the other way;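 further: nearly all actives have a fitted effect of over 70% in size; series mostly up to about 76 or 150 µM; scaled to a cAMP control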
Target sequence (O95398 whole entry, looked up): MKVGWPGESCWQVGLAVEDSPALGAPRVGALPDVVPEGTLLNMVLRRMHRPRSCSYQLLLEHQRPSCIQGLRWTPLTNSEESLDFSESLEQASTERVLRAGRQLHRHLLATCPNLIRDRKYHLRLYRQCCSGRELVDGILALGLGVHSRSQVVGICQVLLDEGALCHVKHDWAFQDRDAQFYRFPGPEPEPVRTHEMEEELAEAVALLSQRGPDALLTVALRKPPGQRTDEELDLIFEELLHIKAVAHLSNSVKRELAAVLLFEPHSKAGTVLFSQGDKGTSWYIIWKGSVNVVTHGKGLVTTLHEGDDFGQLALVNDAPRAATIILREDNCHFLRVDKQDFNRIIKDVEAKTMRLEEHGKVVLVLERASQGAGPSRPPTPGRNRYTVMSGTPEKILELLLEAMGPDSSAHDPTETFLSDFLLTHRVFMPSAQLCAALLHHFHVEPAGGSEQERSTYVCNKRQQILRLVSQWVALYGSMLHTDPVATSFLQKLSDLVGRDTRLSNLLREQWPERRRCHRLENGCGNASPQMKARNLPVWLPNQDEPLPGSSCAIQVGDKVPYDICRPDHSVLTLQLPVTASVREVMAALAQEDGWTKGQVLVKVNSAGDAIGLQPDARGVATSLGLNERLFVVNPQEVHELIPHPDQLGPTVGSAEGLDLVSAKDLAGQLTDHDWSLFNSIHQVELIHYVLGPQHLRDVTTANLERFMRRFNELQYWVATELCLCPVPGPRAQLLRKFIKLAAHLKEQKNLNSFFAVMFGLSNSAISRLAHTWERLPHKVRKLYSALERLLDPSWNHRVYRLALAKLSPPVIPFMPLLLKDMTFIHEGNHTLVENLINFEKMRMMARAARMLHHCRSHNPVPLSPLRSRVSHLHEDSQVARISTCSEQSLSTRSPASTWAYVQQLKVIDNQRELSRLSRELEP
Active calls of the source: *; ? = inconclusive; & = joins results of further samples; [ ] = another dose, or the depositor's remark. On the % scale 0 is the no-effect control and ±100 the full control effect; potency means the concentration at half of the fitted maximal effect. Not all compounds are listed. The share of hits here may be higher or lower than overall.

#	structure	EPAC1 ag val
1	O=C(c1ccccc1C(F)(F)F)N1CCOc2c(cc(-c3nc4ccccc4s3)cc2OC2CCOC2)C1 (stereo unspecified)	-2%
2	CN(C)[C@@H]1C(=O)C(C(N)=O)=C(O)[C@@]2(O)C(=O)C3=C(O)c4c(O)ccc(Cl)c4[C@@H](O)[C@H]3C[C@@H]12	3%&-27%
3	Cc1nc(C)c(C(=O)NCc2nc(-c3cccc(NC(=O)c4ccccn4)c3)oc2C)s1	-2%
4	NCC1OC(OC2C(N)CC(N)[C@@H](O)[C@@H]2OC2O[C@H](CO)[C@@H](O[C@@H]3OC(CN)C(O)C(O)C3N)C2O)C(N)C(O)C1O (stereo partly specified)	-16%
5	CCCCCCCCCCCCCCCC[N+](C)(C)CCN(Cc1ccc(OC)cc1)c1ncccn1	13%
6	O=C(c1cscn1)N1CCOc2ccc(CN3CCC(Oc4cccnc4)CC3)cc2C1	-15%
7	COc1ccc(-c2c(O)c3c(OC)c4c(cc3oc2=O)OC(C)(C)C=C4)cc1	1%
8	COc1cc2c(cc1OC)C(c1c[nH]c3ccccc13)NCC2 (stereo unspecified)	?
9	Nc1ncnc2c1ncn2[C@@H]1O[C@H](COP(=O)(O)OP(=O)(O)OC[C@H]2OC(O)[C@H](O)[C@@H]2O)[C@@H](O)[C@H]1O (stereo partly specified)	-17%
10	COc1ccc(-c2coc3cc(O)ccc3c2=O)c(O)c1O	?
11	N#Cc1cccc(-c2nccc(NCc3cccs3)n2)c1	-10%
12	C=CCc1ccc(O)c(OC)c1	3%&6%&4%

Reprinted, nos. 7 to 8
#	structure	EPAC1 ag val
7	COc1ccc(-c2c(O)c3c(OC)c4c(cc3oc2=O)OC(C)(C)C=C4)cc1	1%
8	COc1cc2c(cc1OC)C(c1c[nH]c3ccccc13)NCC2 (stereo unspecified)	?

Next compounds follow.
#	structure	EPAC1 ag val
13	CCCCN(CCCC)C(=S)[S-].CCCCN(CCCC)C(=S)[S-].[Zn+2]	-6%
14	COc1ccccc1-c1nccc(NCc2ccccc2)n1	-24%
15	C=CCN1[C@@H](C(C)C)COCCS1(=O)=O	17%
16	COc1ncc2nc(CCc3ccccc3)c(=O)n(Cc3ccc(F)cc3)c2n1	-56%[inhibitor]
17	CS(=O)(=O)Nc1c(O)ccc2c1CCCC2C1=NCCN1 (stereo unspecified)	-12%
18	N[C@H](Cc1c[nH]c2ccccc12)C(=O)O	-6%
19	Cc1ccccc1-c1nc(Nc2ccncc2)c2ccccc2n1	-50%[inhibitor]
20	COc1ccc2[nH]cc(CCNc3cc(-c4ccccc4Cl)ncn3)c2c1	-6%
21	COc1ccc(-c2nc3cnc(Nc4ccccc4)nc3n(C[C@H]3CCCO3)c2=O)cc1	28%
22	FC(F)(F)c1ccccc1-c1cc(NCc2cccnc2)ncn1	-14%
23	Cc1cnc(-n2ncc(C(=O)NCc3cccnc3)c2C)nc1-c1ccc(F)cc1	-15%
24	COc1ccc2[nH]cc(CCNc3ccnc(-c4ccccc4C)n3)c2c1	16%

Sorted by molar mass (smallest number first): 18 of the compounds above.
#	structure	EPAC1 ag val
18	N[C@H](Cc1c[nH]c2ccccc12)C(=O)O	-6%
15	C=CCN1[C@@H](C(C)C)COCCS1(=O)=O	17%
14	COc1ccccc1-c1nccc(NCc2ccccc2)n1	-24%
11	N#Cc1cccc(-c2nccc(NCc3cccs3)n2)c1	-10%
10	COc1ccc(-c2coc3cc(O)ccc3c2=O)c(O)c1O	?
8	COc1cc2c(cc1OC)C(c1c[nH]c3ccccc13)NCC2 (stereo unspecified)	?
19	Cc1ccccc1-c1nc(Nc2ccncc2)c2ccccc2n1	-50%[inhibitor]
22	FC(F)(F)c1ccccc1-c1cc(NCc2cccnc2)ncn1	-14%
24	COc1ccc2[nH]cc(CCNc3ccnc(-c4ccccc4C)n3)c2c1	16%
20	COc1ccc2[nH]cc(CCNc3cc(-c4ccccc4Cl)ncn3)c2c1	-6%
7	COc1ccc(-c2c(O)c3c(OC)c4c(cc3oc2=O)OC(C)(C)C=C4)cc1	1%
16	COc1ncc2nc(CCc3ccccc3)c(=O)n(Cc3ccc(F)cc3)c2n1	-56%[inhibitor]
23	Cc1cnc(-n2ncc(C(=O)NCc3cccnc3)c2C)nc1-c1ccc(F)cc1	-15%
21	COc1ccc(-c2nc3cnc(Nc4ccccc4)nc3n(C[C@H]3CCCO3)c2=O)cc1	28%
6	O=C(c1cscn1)N1CCOc2ccc(CN3CCC(Oc4cccnc4)CC3)cc2C1	-15%
13	CCCCN(CCCC)C(=S)[S-].CCCCN(CCCC)C(=S)[S-].[Zn+2]	-6%
9	Nc1ncnc2c1ncn2[C@@H]1O[C@H](COP(=O)(O)OP(=O)(O)OC[C@H]2OC(O)[C@H](O)[C@@H]2O)[C@@H](O)[C@H]1O (stereo partly specified)	-17%
4	NCC1OC(OC2C(N)CC(N)[C@@H](O)[C@@H]2OC2O[C@H](CO)[C@@H](O[C@@H]3OC(CN)C(O)C(O)C3N)C2O)C(N)C(O)C1O (stereo partly specified)	-16%

(cont.)
#	structure	EPAC1 ag val
25	C[C@@H]1CCC(=O)N(C[C@@H](C)CSc2ccc(Br)cc2)CC1	-4%
26	COCCn1c(=O)c(-c2cccc(C#N)c2)nc2cnc(N3CCN(C)CC3)nc21	-29%
27	COc1cccc(-c2oc3ccccc3c(=O)c2O)c1	4%
28	O=S(=O)(c1ccccc1)N1CCC2(CCCN(c3cccc(-c4ccccc4)c3)C2)CC1	?
29	C[C@H](Cn1cnc2c(N)ncnc21)OCP(=O)(O)O	16%
30	COC(=O)N1CCC2(CCCN(c3ccccn3)C2)CC1	-80%[inhibitor]
31	CN1CCC(=C2c3ccccc3CCc3cccnc32)CC1	6%
32	CC(=O)CCC(=O)N1CCC(n2c(C3CCCO3)nc3cc(C(F)(F)F)ccc32)CC1 (stereo unspecified)	-9%
33	COc1ccccc1CN1CCCC(n2cc(C(=O)N3CCCC3)nn2)C1 (stereo unspecified)	8%
34	CC1CCC2C(C)(C)C3CC12CC[C@]3(C)O (stereo partly specified)	-71%[inhibitor]
35	Cc1ccc(C)c2c(C)ccnc12	17%
36	COC(=O)/C=C\c1cc(O)ccc1O	10%
37	COc1ccc(-n2c(=O)c(-c3ccccc3)nc3cnc(N4CCNCC4)nc32)cc1	-12%
38	FC(F)(F)c1ccccc1-c1nc(NCCN2CCOCC2)c2ccccc2n1	-28%
39	CC(=O)N1CCC2(CC1)CCN(c1ncccn1)CC2	-56%[inhibitor]
40	Cc1ncc2c(c1CNC(=O)c1ccccc1F)CCN(C(=O)c1csc(-c3cccs3)n1)C2	4%
41	COC(=O)c1ccc(CN2C[C@H](Sc3ccccn3)C[C@H]2C(=O)N(C)C)cc1	8%
42	C=C1O[C@@](CO)(n2cnc3c(N)ncnc32)[C@H](O)[C@@H]1O	-7%
43	O=C(c1ccncc1)N1CCC2(CC1)CCN(c1cccc(-c3ccccc3)c1)CC2	-25%
44	CC(=O)N[C@H](CS)C(=O)O	18%
45	CC(C)CCCC(C)CCCC(C)CCCCC(C)CCCC(C)CCCC(C)C (stereo unspecified)	-19%
46	O=c1c(-c2ccccc2)nc2cnc(Oc3cccc(Cl)c3)nc2n1C[C@H]1CCCO1	?
47	O=C(c1ccncc1)N1CCC2(CCCN(c3ncccn3)C2)CC1	-8%
